Rango release inh – prevents RanGTP from dissociating the Rango-importin beta complex | O95149+P62826 | Biochemical FRET Rango-importin beta, RanGTP-induced dissociation | Potency, µM (titrated, usually from 46.1 µM), for inactives: at the top dose activity change, negative = inhibition | actives 0.071% (n = 340,000); active means falling FRET ratio curve, often poorly fitted, with flat reads before Ran was added; inconclusive means other falling curves, or compound fluorescence or quenching; inactive means flat or rising ratio curve;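 note: potency is the fitted concentration of half-maximal effect; % of control where 0% means no effect; nearly all actives have a fitted effect of over 45% in size; -100% = wells without RanGTP and RCC1; the record marks most hits as doubtful in a second field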
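Quantitative HTS using a FRET biosensor: 0.1 uM Rango, 0.25 uM importin beta, 0.6 uM Ran, 2 mM GTP, 0.2 uM RCC1 final, PBS with DTT, Tween-20 and BSA. Post-read taken 45 min after Ran addition.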
GLA inh pH 4.5 – blocks human alpha-galactosidase A at pH 4.5; P06280; purified enzyme, 4-MU-alpha-Gal fluorescence, pH 4.5; activity change, negative = inhibition, % at 105 µM; 230,000 tested, under 10 active; inconclusive = small, poorly fitted or top-dose-only inhibition, or a rising curve; inactive = flat fitted curve, though single readings scatter; no compound was filed as active;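 note: 0% = full activity with enzyme and -100% = basal without enzyme; dose as in the result columns while the protocol names 77 µM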
Target sequence (P06280 whole entry, looked up): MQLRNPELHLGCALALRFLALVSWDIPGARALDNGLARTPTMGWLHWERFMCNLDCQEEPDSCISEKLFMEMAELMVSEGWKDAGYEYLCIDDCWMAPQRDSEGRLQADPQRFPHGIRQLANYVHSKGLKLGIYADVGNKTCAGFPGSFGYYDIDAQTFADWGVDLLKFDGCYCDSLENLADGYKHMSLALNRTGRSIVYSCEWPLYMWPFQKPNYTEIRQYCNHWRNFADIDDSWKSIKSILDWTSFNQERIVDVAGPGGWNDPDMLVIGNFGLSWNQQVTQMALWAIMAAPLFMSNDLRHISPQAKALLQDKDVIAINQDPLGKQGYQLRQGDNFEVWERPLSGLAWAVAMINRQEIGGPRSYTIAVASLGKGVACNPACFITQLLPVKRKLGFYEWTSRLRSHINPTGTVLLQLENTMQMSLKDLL
Rango-impB inh – inhibitors of Rango-importin beta complex formation | Q14974 | Rango CFP/YFP FRET sensor + importin beta, 45 min | Potency, µM (titrated, usually from 92.2 µM), inactives show at the highest dose inhibition of complex formation | actives 0.031% (n = 340,000) | AID 540263; active = rising FRET ratio curve, often small or poorly fitted; inconclusive = mostly compound fluorescence or quenching in the first reads; inactive = flat curves in all reads;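 note: potency is the fitted concentration of half-maximal effect; 0% = DMSO wells and 100% = buffer wells lacking importin beta; nearly all actives have a fitted effect of over 15% in size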
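Inhibition scored from the CFP 486 nm/YFP 530 nm FRET ratio 45 min after adding 0.125 microM importin beta to 50 nM Rango biosensor preincubated 5 min with compound (room temperature, PBS with DTT, Tween-20, BSA). No-importin wells as positive control.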
miR-21 reporter – raises the signal of a miR-21 reporter. Potency, µM (top dose mostly 38.3 µM), for the others: top-dose reporter change, positive = more light. HeLa miR-21 FLuc reporter, luciferase, 48 h. 340,000 tested, under 10 active. AID 2288; active = well fitted rising curve with a large enough effect; inconclusive = small, poorly fitted or top-dose-only effect; inactive = no such curve, though single readings can be large or run the other way;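 note: % of control where 0% means no effect; miR-21 action dims this reporter so a rising signal means less miR-21 action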
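Compounds were titrated across several concentrations (up to approximately 40 uM) and incubated 48 hours with HeLa miR-21-FLuc reporter cells (miR-21 target sequence downstream of FLuc, endogenous miR-21). Readout was firefly luciferase luminescence after lytic detection reagent.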
* = called active by the depositor; u = inconclusive; x = not tested or not shown; & = joins results of further samples; [ ] = another dose, or the depositor's remark.

Rango release inh,GLA inh pH 4.5,Rango-impB inh,miR-21 reporter,SMILES
8%,1,-2.9%,-2%,O=C(CN1CCN(C(=O)N2CCCCC2)CC1)Nc1ccc(F)cc1
-7%,5,u,-52%,CCOC(=O)c1ccc(-c2ccc(C=O)o2)cc1
0%,10,u,-7%,CCCCN(C(=O)c1ccc(Cl)cc1)C1CC2CCC(C1)N2C (centres undefined)
-11%,x,-0.7%,1%,CN(C1CCCCC1)S(=O)(=O)c1cccc2nsnc12
-10%,-2,0.8%,-2%,NC(=O)CSc1nnc(-c2ccc(S(=O)(=O)N3CCOCC3)cc2)n1Cc1ccccc1
19%,x,-3.1%,-2%,Cc1ccccc1OCC(O)CN1CCN(C)CC1 (centres undefined)
-8%,3,-0.1%,-1%,CCc1nc(SCC(=O)Nc2nnc(CC)s2)c2c(C)c(C)sc2n1
15%,-6,-1.3%,1%,CC(C)(C)n1nc2c(c1NC(=O)c1ccc(S(=O)(=O)N3CCCC3)cc1)CS(=O)C2 (centres undefined)
-13%,x,-0.7%,x,CCCCN(C(=O)c1cc(-c2ccc(F)cc2)nc2ccccc12)c1c(N)n(CCCC)c(=O)[nH]c1=O
1%,-2,-4.2%,-2%,O=C(CSCC(=O)OCC(=O)c1ccc(Br)cc1)Nc1ccc(Br)cc1
-12%,0[21.1 µM],u,-58%&-60%,CC(=O)Cn1nnc2sc(-c3ccccc3)cc2c1=O
1%,6,1.5%,-38%,COc1ccccc1C(=O)Nc1nc(-c2cccs2)c(NC(C)=O)s1
-22%,x,-2.5%,-4%,O=[N+]([O-])c1ccccc1OCCN1CCOCC1
-2%,x,0.7%,1%,CC1(C)C(C=C(Cl)Cl)C1C(=O)NC(O)C(=O)c1ccccc1 (centres undefined)
-8%,-1,3.3%,19%,C(=C\c1ccccc1)/CN1CCN(c2ncnc3c2oc2ccccc23)CC1
1%,x,-1.5%,0%,CCCn1c(N)c(N(CCOC)C(=O)c2cccc(F)c2)c(=O)[nH]c1=O
0%,x,0.0%,-6%,O=C(NCCOC(=O)c1c(F)cccc1Cl)c1c(F)cccc1Cl
-8%,-7,0.3%,-16%,Cc1cc(/C=N/N2CCN(C)CC2)c(C)n1-c1ccccc1F
-13%,x,6.8%,-9%,Cc1cc(C)c2nc(N(CCN(C)C)C(=O)c3ccc(S(=O)(=O)N(C)CC4CCCO4)cc3)sc2c1 (centres undefined)
-10%,x,-1.0%,x,Cc1cc(S(=O)(=O)N2CCCCC2CCNC(=O)C(=O)NC2CC2)ccc1F (centres undefined)
20%,-19,-0.5%,0%,CN(Cc1ccc(F)cc1)Cc1nc(CCc2ccccc2)no1
3%,6,4.6%,2%,CSc1nnc(C)c(=O)n1COC(=O)c1cc(Cl)ccc1[N+](=O)[O-]
-7%,7,-4.2%,4%,CCCC(=O)Nc1sc2c(c1C(=O)OCC)CC(C)(C)OC2
-5%,-6,-1.8%,-47%,N#C/C(=N\Nc1ccccc1[N+](=O)[O-])C(=N)N1CCCCC1
-3%,x,-4.8%,x,O=C(Nc1ccc(Cl)c(S(=O)(=O)N2CCOCC2)c1)C1CCCC1
-9%,9,0.1%,-1%,NC(=O)CC(c1ccccc1)c1ccco1 (centres undefined)
5%,x,1.7%,8%,O=C(Cn1c(=O)n(Cc2ccccc2)c(=O)c2cc(Cl)ccc21)NCC1CCCO1 (centres undefined)
3%,2,1.1%,1%,O=C(c1cnc2n(c1=O)CCS2)N(c1ccccc1)C1CCCCC1
-3%,x,-3.8%,-27%,COc1cc(CNCCO)ccc1OCCc1ccccc1
1%,0,-2.3%,0%,CCC/C(O)=C1\C(=O)CCCC1=NC(C)C(=O)O (centres undefined)

Some entries already given, reduced to miR-21 reporter and Rango release inh:
Structure	miR-21 reporter	Rango release inh
CSc1nnc(C)c(=O)n1COC(=O)c1cc(Cl)ccc1[N+](=O)[O-]	2%	3%
Cc1cc(S(=O)(=O)N2CCCCC2CCNC(=O)C(=O)NC2CC2)ccc1F (centres undefined)	x	-10%
COc1cc(CNCCO)ccc1OCCc1ccccc1	-27%	-3%

(listing goes on)
Rango release inh,GLA inh pH 4.5,Rango-impB inh,miR-21 reporter,SMILES
-11%,-3,-2.9%,-1%,COc1ccc2cc(C3CC(c4cccs4)=NN3C(C)=O)c(Cl)nc2c1 (centres undefined)
1%,x,-0.1%,x,CCS(=O)(=O)c1ccc(-c2cccc(NC(=O)c3ccc(Br)o3)c2)nn1
-6%,x,0.8%,1%,O/N=C\c1ccc2noc(-c3ccc(Cl)cc3)c2c1
u,x,-4.9%,x,CCCCn1c(SCC(=O)NNC(=O)c2ccccc2)n[nH]c1=O
-1%,-2,u,21%,Cc1nc(-c2cccs2)sc1C(=O)NN
7%,2,-1.6%,-11%,COc1ccc(-c2nc3c(n2O)CCc2c-3no[n+]2[O-])cc1
-4%,1,2.3%,-3%,COc1cc(C2C3=C(CC(C)(C)CC3=O)OC(N)=C2[N+](=O)[O-])ccc1O (centres undefined)
-4%,x,0.0%,-4%,Cc1ccc(-c2nnc(Nc3cccc(O)c3)c3ccccc23)cc1S(=O)(=O)NCCO
3%,6,-0.2%,3%,O=c1[nH]c(NCCO)nc2c1C1(CCCCC1)Cc1ccccc1-2
3%,x,2.5%,x,COc1ccc(-c2cc(C(=O)N3CCCC(C(F)(F)F)C3)c3ccccc3n2)cc1 (centres undefined)
-15%,x,-1.6%,x,COc1ccccc1C(C)NC(=O)CN(C)CC(=O)Nc1c(C)cccc1C (centres undefined)
-10%,0,2.9%,-8%,N=C1/C(=C/c2cccn2-c2ccc([N+](=O)[O-])cc2)C(=O)N=C2SC=CN12
3%,0,-1.0%,27%,COc1ccc(-c2noc(CCCC(=O)O)n2)cc1
-8%,-9,-0.1%,-2%,COc1ccc(NC(=O)C2CCCCN2CC(=O)OCc2ccccc2)cc1OC (centres undefined)
-1%,12,3.0%,-8%,CC(=O)Nc1sc2c(c1CN1CCN(C)CC1)CCCC2

Some of these compounds in order of their number in Rango release inh, ascending:
Rango release inh,GLA inh pH 4.5,Rango-impB inh,miR-21 reporter,SMILES
-15%,x,-1.6%,x,COc1ccccc1C(C)NC(=O)CN(C)CC(=O)Nc1c(C)cccc1C (centres undefined)
-11%,-3,-2.9%,-1%,COc1ccc2cc(C3CC(c4cccs4)=NN3C(C)=O)c(Cl)nc2c1 (centres undefined)
-1%,12,3.0%,-8%,CC(=O)Nc1sc2c(c1CN1CCN(C)CC1)CCCC2
3%,0,-1.0%,27%,COc1ccc(-c2noc(CCCC(=O)O)n2)cc1
7%,2,-1.6%,-11%,COc1ccc(-c2nc3c(n2O)CCc2c-3no[n+]2[O-])cc1

(listing goes on)
Rango release inh,GLA inh pH 4.5,Rango-impB inh,miR-21 reporter,SMILES
-11%,x,-0.2%,x,c1ccc2c(c1)CCc1ccccc1C2=C1CCNCC1
-7%,9,-2.0%,-3%,COc1ccc2c(CC(=O)NCC3CCC(C(=O)O)CC3)cc(=O)oc2c1 (centres undefined)
-2%,-7,-3.5%,1%,COC(=O)c1cc(Cl)c(NC(=O)/C=C/c2ccc(Cl)cc2)cc1OC
-3%,x,-0.2%,-1%&-10%,Cc1ccc(Cn2ccnc2SCC(=O)NC2CCCC2)cc1
14%,x,-1.5%,0%,C=CCN(Cc1ccc(OC)c(OC)c1)C(=O)c1cc2cc(F)ccc2[nH]1
-5%,-1,-0.8%,2%,Cc1cccc(N2CCN(C(=O)/C=C/c3cccs3)CC2C)c1 (centres undefined)
3%,1,4.3%,20%,CN1C(C(=O)NCc2ccc(OC(F)(F)F)cc2)CC2Cn3c(nc4cc(Cl)c(Cl)cc43)C21 (centres undefined)
-10%,-8,-3.5%,15%,O=C(/C=C/c1cccs1)Nc1ccc(N2CCOCC2)c(S(=O)(=O)Nc2ccccc2Cl)c1
5%,2,u,28%,CC(=O)SC(C[N+](=O)[O-])c1cn(C(C)=O)c2ccccc12 (centres undefined)
0%,-21,0.1%,-55%,Clc1ncccc1-c1nnn(-c2ccccc2)n1
11%,x,-0.1%,-2%,CCC(=O)Nc1ccc2c(c1)nc1n2CCN(CCOC)C1
-10%,x,-0.6%,0%,CCc1ccccc1N(CC(=O)NC(C)C)C(=O)CCC(=O)Nc1nccs1
2%,x,0.3%,3%,COc1ccc(C(=O)Oc2cc(C)[nH]c(=O)c2[N+](=O)[O-])c(OC)c1
11%,x,0.0%,x,Cc1cc(C)c(S(=O)(=O)N2CCN(C(=O)C3CCCO3)CC2)c(C)c1 (centres undefined)
-16%,-4,-2.6%,-1%,CCCOc1cccc(CN2CCCCC2c2cccnc2)c1 (centres undefined)
1%,x,-4.5%,-6%,S=c1[nH]nc(COc2ccccc2)n1/N=C/c1ccc(Cl)cc1Cl
-5%,-8,-3.5%,0%,Cc1cc(NC(=O)CCCn2nc([N+](=O)[O-])c(Cl)c2C)no1
1%,10,2.0%,0%,O=C(O)c1cccc(Oc2cccc(Cl)n2)c1
3%,5,2.0%,-7%,CCN(CC)CCCn1c(=S)[nH]c2cc(Cl)ccc2c1=O
-10%,x,-0.2%,0%,Cc1ccc(CN(C)C2CCN(C)CC2)cc1
6%,-2,0.6%,-2%,N/C(=N\c1nc(CSc2ccc(Cl)cc2)cc(=O)[nH]1)Nc1ccccc1C(F)(F)F
15%,-14,4.4%,20%,CCc1ccc(-c2csc3ncn(CC(=O)NCc4ccco4)c(=O)c23)cc1
-3%,-9,-0.5%,-4%,Cn1cnnc1SCC(=O)NN(c1ccccc1)c1ccccc1
-10%,x,-0.6%,-1%,Cc1ccc(N2CC(C(=O)Nc3ncc([N+](=O)[O-])s3)CC2=O)cc1 (centres undefined)
13%,6,0.5%,2%,Cc1cccc(N2CCN(C3=NC(=O)/C(=C\c4cn[nH]c4-c4ccccc4)S3)CC2)c1
10%,x,1.3%,-1%,O=C(O)c1ccccc1C(=O)Nn1cnnc1
-28%,-6,8.8%,-1%,O=C(O)c1cccc(S(=O)(=O)Nc2cc(Cl)ccc2Cl)c1
7%,0,-0.7%,23%,O=C(CCCN1C(=O)c2ccccc2C1=O)NCCN1C(=O)S/C(=C\c2cccs2)C1=O
7%,x,-3.3%,x,COc1ccccc1NC(=O)COC(=O)/C=C/c1ccc(OC)c(OC)c1
16%,-1,-0.3%,-16%,COc1ccc2cc(C(=O)C3CCCN(Cc4ccccn4)C3)ccc2c1 (centres undefined)
-2%,-5,4.9%,-6%,CCN1CCN(CC(=O)Nc2nc3ccc(OC)cc3s2)CC1
-13%,-14,-0.8%,-5%,Cc1ccc2cc(CN(Cc3cccs3)Cc3nnnn3CC3CCCO3)c(=O)[nH]c2c1C (centres undefined)
15%,x,-1.1%,-4%,Cc1ccc(Nc2c([N+](=O)[O-])ccc3nonc23)cc1C
15%,-4,-0.5%,-21%,COc1cccc(C(=O)COc2ccccc2N2C(=O)C3C4C=CC(C4)C3C2=O)c1 (centres undefined)
3%,4,2.3%,1%,COc1ccc(Nc2nccc(OC)c2C#N)cc1
0%,x,-0.1%,-8%,COc1ccc(CCNC(=O)c2cc(Cl)nc3ccccc23)cc1
3%,x,-4.5%,0%,Cc1ccc(S(=O)(=O)N2CCN(C(=O)CSc3ccc(Cl)cc3)CC2)cc1
10%,4,-0.3%,-4%,O=C(CCc1nnc(-c2ccccc2)o1)NCC1CCN(C2CCCC2)CC1
-12%,x,2.0%,-1%,Cc1ccc(CNC(=O)CSc2ncn[nH]2)cc1
-8%,-2,6.0%,-6%,COC(=O)CC1C(C(=O)OC)ON2OC(C(=O)OC)C(C(=O)OC)C12 (centres undefined)
8%,x,-2.0%,x,O=C(NCc1ccco1)c1cccc(S(=O)(=O)N2CCN(Cc3ccccc3)CC2)c1
20%,x,0.9%,-5%,O=C(CCn1cnnn1)NC1CCCN(Cc2ccccc2F)C1 (centres undefined)
3%,3,3.7%,-12%,COCCn1c(SCC(=O)Nc2cc(C)nn2-c2ccccc2)nnc1-c1ccncc1
-3%,-6,0.9%,2%,Cc1cccc(OCCCCc2c(C)n[nH]c2C)c1

Bioassay records from PubChem BioAssay.

The list is partial (hit frequency here may not be typical).
